NOMO-1 viab: NOMO-1 AML cell viability reduction, primary screen, STK33 inhibitor project, CellTiter-Glo luminescence; AID 2330, 2010; NOMO-1 AML viability, 72 h; hit rate 7.5% among 37,000; inhibition, % (concentration not given with the values);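 active means most replicates above 80%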;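 further: wells of about 30 µL received 25 nL stock; 0% = median of vehicle wells and 100% = reference inhibitor level; the first replicate is given; inactives centre near 10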
* = called active by the depositor.

item | Molecule | NOMO-1 viab
1 | COc1ccc(NC(=O)N(C)C[C@@H]2Oc3c(NC(=O)C4CC4)cccc3C(=O)N([C@H](C)CO)C[C@H]2C)cc1 | -11.6
2 | Cc1ccc(S(=O)(=O)N(C)C[C@H]2Oc3ccc(NC(=O)Nc4c(C)noc4C)cc3CC(=O)N([C@H](C)CO)C[C@H]2C)cc1 | 0.1
3 | C[C@H](CO)N1C[C@H](C)[C@H](CN(C)Cc2ccc3c(c2)OCO3)Oc2c(NC(=O)C3CCCCC3)cccc2C1=O | 4.1
4 | Cc1ccc(-n2c(SCC(=O)Nc3ccc(F)c(Cl)c3)nnc2-c2ccco2)cc1 | 46.1
5 | COc1ccc(S(=O)(=O)N(C)C[C@H]2Oc3ccc(NS(C)(=O)=O)cc3C(=O)N([C@H](C)CO)C[C@H]2C)cc1 | -0.6
6 | Cc1ccc(S(=O)(=O)Nc2ccc3c(c2)C(=O)N([C@@H](C)CO)C[C@H](C)[C@H](CN(C)C(=O)Nc2cccc4ccccc24)O3)cc1 | 6.4
7 | COc1ccc(NC(=O)N(C)C[C@@H]2Oc3c(NC(=O)NC4CCCCC4)cccc3C(=O)N([C@H](C)CO)C[C@H]2C)cc1 | -1.2
8 | COc1ccc(CN(C)C[C@H]2Oc3ccc(NC(=O)C4CC4)cc3C(=O)N([C@@H](C)CO)C[C@@H]2C)cc1 | -15.8
9 | O=[N+]([O-])c1cccc(CN(CCO)Cc2ccccc2)c1 | 10.5
10 | N#Cc1cc2c(nc1SCC(=O)Nc1cccc(F)c1)CCCC2 | 92.4*
11 | COc1c2occc2c(OC)c2c(=O)cc(CO[C@@H]3O[C@H](CO)[C@@H](O)[C@H](O)[C@H]3O)oc12 | 12.1
12 | COc1ccc(NC(=O)N(C)C[C@H]2Oc3ccc(NS(C)(=O)=O)cc3C(=O)N([C@@H](C)CO)C[C@@H]2C)cc1 | -4.8
13 | C[C@@H]1CN([C@H](C)CO)C(=O)Cc2cc(NC(=O)Nc3ccc(F)cc3)ccc2O[C@@H]1CN(C)S(C)(=O)=O | 16.7
14 | Cc1noc(C)c1NC(=O)Nc1ccc2c(c1)CC(=O)N([C@@H](C)CO)C[C@H](C)[C@H](CN(C)C(=O)Nc1ccc3c(c1)OCO3)O2 | 7.3
15 | C[C@@H]1CN([C@H](C)CO)C(=O)c2cccc(NC(=O)Nc3cccc4ccccc34)c2O[C@@H]1CN(C)S(=O)(=O)c1ccc(Cl)cc1 | -10.0
16 | CC(=O)Oc1ccc2c(c1C(C)C)CCC1C(C)(C)CCC[C@]21C (stereo partly specified) | 9.4
17 | O=c1c(O)c(-c2ccc(O)cc2)oc2cc(OC3O[C@H](CO)[C@@H](O)[C@H](O)[C@H]3O)cc(O)c12 (stereo partly specified) | 17.8
18 | Cc1noc(C)c1S(=O)(=O)Nc1ccc2c(c1)CC(=O)N([C@@H](C)CO)C[C@H](C)[C@H](CN(C)S(=O)(=O)c1c(C)noc1C)O2 | 14.7
19 | CC(C)N(C(=O)NCc1ccccc1)C(C)C | -18.6
20 | CCOc1ccc(C)cc1S(=O)(=O)NCc1ccco1 | 7.4
21 | Cc1ccc2c(c1)c1nnc(SCCN3CCCCC3)nc1n2C | -13.3
22 | COc1ccccc1OCC(=O)Nc1cc(C(=O)Nc2ccccc2C(=O)O)ccc1C | 12.7
23 | CCOC(=O)c1sc(SCc2c(Cl)cccc2Cl)c(S(=O)(=O)C(C)C)c1N | 22.1
24 | COc1ccc(OC)c(S(=O)(=O)Nc2ccc(O)c3ccccc23)c1 | 127.1*
25 | CCN(CC(=O)Nc1ccccc1C(F)(F)F)S(=O)(=O)c1ccc(C)cc1 | 22.7

The last 2 entries of the section above open the next one:
item | Molecule | NOMO-1 viab
24 | COc1ccc(OC)c(S(=O)(=O)Nc2ccc(O)c3ccccc23)c1 | 127.1*
25 | CCN(CC(=O)Nc1ccccc1C(F)(F)F)S(=O)(=O)c1ccc(C)cc1 | 22.7
26 | C[C@@H]1CN([C@H](C)CO)C(=O)c2cc(NC(=O)C3CC3)ccc2O[C@@H]1CN(C)C(=O)Nc1cccc2ccccc12 | 17.5
27 | COc1ccc(NC(=O)Nc2cccc3c2O[C@H](CN(C)Cc2ccc(C(F)(F)F)cc2)[C@@H](C)CN([C@@H](C)CO)C3=O)cc1 | 84.8*
28 | Cc1noc(C)c1NC(=O)N(C)C[C@H]1Oc2c(cccc2N(C)C)C(=O)N([C@H](C)CO)C[C@H]1C | -2.0
29 | COc1ccc(NC(=O)Nc2ccc3c(c2)CC(=O)N([C@H](C)CO)C[C@@H](C)[C@H](CN(C)S(=O)(=O)c2ccc(OC)cc2)O3)cc1 | -19.6
30 | Cc1noc(C)c1NC(=O)N(C)C[C@@H]1Oc2ccc(NC(=O)NC3CCCCC3)cc2CC(=O)N([C@H](C)CO)C[C@H]1C | 7.2
31 | C[C@@H]1CN([C@H](C)CO)C(=O)Cc2cc(NC(=O)Cc3cn(C)c4ccccc34)ccc2O[C@@H]1CN(C)C(=O)NC1CCCCC1 | 7.9
32 | CC(C)NC(=O)Nc1ccc2c(c1)C(=O)N([C@@H](C)CO)C[C@H](C)[C@H](CN(C)Cc1ccc(Cl)c(Cl)c1)O2 | -6.8
33 | Cc1ccc(S(=O)(=O)N(C)C[C@H]2Oc3ccc(NC(=O)Nc4ccccc4)cc3CC(=O)N([C@@H](C)CO)C[C@H]2C)cc1 | 74.3
34 | C[C@@H]1CN([C@H](C)CO)C(=O)c2cc(NS(=O)(=O)c3ccccc3)ccc2O[C@@H]1CN(C)CC1CCCCC1 | 8.0
35 | CCc1cc2c(=O)n(-c3ccccc3)c(SCC(=O)O)nc2s1 | 21.6
36 | Cc1noc(C)c1NC(=O)Nc1cccc2c1O[C@@H](CN(C)Cc1ccncc1)[C@@H](C)CN([C@@H](C)CO)C2=O | -14.7
37 | C[C@H]1CN([C@@H](C)CO)C(=O)c2cc(NC(=O)c3ccncc3)ccc2O[C@H]1CN(C)Cc1ccc2c(c1)OCO2 | 1.9
38 | C[C@H]1CN([C@@H](C)CO)C(=O)Cc2cc(NC(=O)CCN3CCOCC3)ccc2O[C@@H]1CN(C)Cc1ccccc1 | 8.9
39 | Cc1ccc(S(=O)(=O)Nc2ccc3c(c2)C(=O)N([C@H](C)CO)C[C@H](C)[C@H](CN(C)S(=O)(=O)c2ccc(F)cc2)O3)cc1 | 41.6
40 | CCOC(=O)c1nnn2c1nc(N(CC)CC)c1ccccc12 | 7.6
41 | Cc1noc(C)c1NC(=O)N(C)C[C@H]1Oc2c(NC(=O)C3CCOCC3)cccc2C(=O)N([C@@H](C)CO)C[C@@H]1C | 20.2
42 | C[C@@H]1CCCCO[C@H](CN(C)C)[C@@H](C)CN([C@H](C)CO)C(=O)c2cc(NC(=O)C3CCCCC3)ccc2O1 | -4.5
43 | Cc1cc(C)nc(NC(=O)COc2ccc([N+](=O)[O-])cc2)n1 | -7.7
44 | Cc1ccc(NC(=O)COc2ccc(Cl)cc2)cc1NC(=O)c1ccccc1 | 19.5
45 | O=C1C=CC(O)(/C=C/C(=O)O[C@@H]2[C@@H](O)[C@H](Oc3ccc(O)cc3)O[C@H](CO)[C@H]2O)C=C1 | 30.3
46 | COc1ccc(CCCc2nnc(SCC(=O)Nc3cc(F)ccc3C)o2)cc1C | 1.5
47 | O=C(CSc1nc2ccccc2c(=O)[nH]1)Nc1ccccc1C(=O)c1ccccc1 | 35.4
48 | C[C@@H]1CN([C@H](C)CO)C(=O)c2cc(NC(=O)C3CC3)ccc2O[C@@H]1CN(C)CC1CC1 | -0.9
49 | COc1ccc(OC)c(C2Nc3nc4ccccc4n3C(C)=C2C(=O)Nc2ccc(C)cc2C)c1 (stereo unspecified) | 85.4*
50 | CCc1nc(-c2ccc(OC)cc2)cc2cc(OC)c(OC)cc12 | 34.5

The results go on.
item | Molecule | NOMO-1 viab
51 | C[C@@H]1CN([C@H](C)CO)C(=O)Cc2cc(NS(=O)(=O)c3cn(C)cn3)ccc2O[C@H]1CN(C)C(=O)Nc1ccc(C(F)(F)F)cc1 | 16.3
52 | C[C@@H]1CCCCO[C@H](CN(C)S(=O)(=O)c2cccs2)[C@@H](C)CN([C@H](C)CO)C(=O)c2cc(NS(=O)(=O)c3ccc(Cl)cc3)ccc2O1 | 23.6
53 | CC12CCC3c4ccc(OC(=O)c5ccccc5)cc4CCC3C1CCC2O (stereo unspecified) | 29.7
54 | C[C@@H]1CN([C@@H](C)CO)C(=O)c2cc(NS(=O)(=O)c3cccs3)ccc2O[C@@H]1CN(C)CC1CC1 | 10.0
55 | C[C@@H]1CN([C@@H](C)CO)C(=O)Cc2cc(NC(=O)Nc3cccc4ccccc34)ccc2O[C@@H]1CN(C)S(C)(=O)=O | -5.9
56 | C[C@H]1CN([C@@H](C)CO)C(=O)c2cccc(NS(=O)(=O)c3cn(C)cn3)c2O[C@@H]1CN(C)Cc1ccncc1 | -16.6
57 | COc1ccc(S(=O)(=O)N(C)C[C@H]2Oc3ccc(NS(=O)(=O)c4cn(C)cn4)cc3CC(=O)N([C@@H](C)CO)C[C@@H]2C)cc1 | -6.2
58 | CC(C)NC(=O)N(C)C[C@@H]1Oc2c(NC(=O)C3CC3)cccc2C(=O)N([C@H](C)CO)C[C@@H]1C | 22.5
59 | c1ccc(-n2c(SCc3nc4ccccc4[nH]3)nnc2-c2cnccn2)cc1 | 50.0
60 | O=C(CN1C(=O)C2C3C=CC(C4CC34)C2C1=O)Nc1ccc(Oc2ccc(Br)cc2)cc1 (stereo unspecified) | 85.7*
61 | C[C@@H]1CN([C@H](C)CO)C(=O)c2cc(NS(C)(=O)=O)ccc2O[C@@H]1CN(C)Cc1ccc(C(=O)O)cc1 | 14.9
62 | O=C(CNC(=O)c1ccc([N+](=O)[O-])cc1)Nc1cccc(C(F)(F)F)c1 | -7.4
63 | CN(C(=O)C(Cl)Cl)c1ccc(OC(=O)c2ccco2)cc1 | 4.0
64 | O=CNCCc1c[nH]c2ccccc12 | 1.3
65 | CC(C)NS(=O)(=O)c1ccc(NC(=O)C2CCCCC2C(=O)O)cc1 (stereo unspecified) | -16.0
66 | C=C[C@H]1[C@H](O[C@@H]2O[C@H](CO)[C@@H](O)[C@H](O)[C@H]2O)OC=C2C(=O)OCC[C@]21O | -7.6
67 | C[C@@H]1CN([C@H](C)CO)C(=O)c2cccc(NC(=O)Nc3ccc4c(c3)OCO4)c2O[C@H]1CN(C)S(C)(=O)=O | 18.6
68 | CCn1c(SCC(=O)Nc2cc(F)ccc2C)nnc1-c1ccccc1O | -10.7
69 | C[C@@H]1CN([C@@H](C)CO)C(=O)c2cc(NS(=O)(=O)c3cccs3)ccc2O[C@H]1CN(C)C | -14.0
70 | COc1ccccc1NC(=O)C(C)NS(=O)(=O)c1ccccc1 (stereo unspecified) | 5.1
71 | C[C@@H]1CN([C@H](C)CO)C(=O)c2cccc(NS(=O)(=O)c3ccc(Cl)cc3)c2O[C@H]1CN(C)C(=O)Nc1ccc(F)cc1 | -4.5
72 | O=C(COc1ccc([N+](=O)[O-])cc1)Nc1ccc2oc(-c3cc(F)c(F)cc3Cl)nc2c1 | 53.3
73 | COc1ccc(/C=C2\Cc3ccccc3C2=O)cc1 | -1.5
74 | COc1cccc(-n2nnnc2SCC(=O)Nc2ccccc2)c1 | -9.4
75 | Cc1ccc(-c2nnc(Nc3cccc(O)c3)c3ccccc23)cc1S(=O)(=O)N1CCOCC1 | 19.0

Some of the entries so far, with each value named.
(56) C[C@H]1CN([C@@H](C)CO)C(=O)c2cccc(NS(=O)(=O)c3cn(C)cn3)c2O[C@@H]1CN(C)Cc1ccncc1
  NOMO-1 viab = -16.6

(64) O=CNCCc1c[nH]c2ccccc12
  NOMO-1 viab = 1.3

(55) C[C@@H]1CN([C@@H](C)CO)C(=O)Cc2cc(NC(=O)Nc3cccc4ccccc34)ccc2O[C@@H]1CN(C)S(C)(=O)=O
  NOMO-1 viab = -5.9

(74) COc1cccc(-n2nnnc2SCC(=O)Nc2ccccc2)c1
  NOMO-1 viab = -9.4

(list continues)
item | Molecule | NOMO-1 viab
76 | COc1cc(NC(=O)c2ccc(Cn3cc(Cl)cn3)o2)c(C(C)=O)cc1OC | -3.6
77 | COc1ccc(CN(C)C[C@@H]2Oc3ccc(NS(=O)(=O)c4cn(C)cn4)cc3C(=O)N([C@H](C)CO)C[C@H]2C)cc1 | 13.4
78 | COc1ccc2c(c1)nnc1n[nH]c(=O)n12 | 16.4
79 | CCN(CCS(=O)(=O)c1ccc(Cl)cc1)S(=O)(=O)c1ccc(Cl)cc1 | -18.6
80 | C[C@H]1CN([C@@H](C)CO)C(=O)Cc2cc(NC(=O)CCN3CCOCC3)ccc2O[C@@H]1CN(C)C(=O)Nc1cccc2ccccc12 | 12.4
81 | Cc1ccc(S(=O)(=O)N(C)C[C@@H]2Oc3ccc(NC(=O)Cc4ccccc4)cc3CC(=O)N([C@H](C)CO)C[C@H]2C)cc1 | 53.4
82 | C[C@H](CO)N1C[C@H](C)[C@@H](CN(C)C(=O)Nc2ccccc2)Oc2ccc(NC(=O)CCC(F)(F)F)cc2C1=O | 9.7
83 | C[C@H]1CN([C@@H](C)CO)C(=O)c2cc(NC(=O)Cc3cn(C)c4ccccc34)ccc2O[C@H]1CN(C)CC1CCCCC1 | 15.0
84 | C[C@@H]1CN([C@H](C)CO)C(=O)c2cc(NS(=O)(=O)c3cn(C)cn3)ccc2O[C@H]1CN(C)C(=O)Nc1cccc2ccccc12 | -1.6
85 | C[C@H](CO)N1C[C@H](C)[C@H](CN(C)Cc2ccc(C(=O)Nc3ccccc3N)cc2)Oc2ccc(NC(=O)Nc3ccc(F)cc3)cc2CC1=O | 126.7*
86 | CNC[C@@H]1Oc2c(NS(=O)(=O)c3ccc(OC)cc3)cccc2C(=O)N([C@@H](C)CO)C[C@@H]1C | -12.0
87 | C[C@H]1CN([C@@H](C)CO)C(=O)Cc2cc(NC(=O)Nc3ccc(C(F)(F)F)cc3)ccc2O[C@@H]1CN(C)C(=O)Nc1ccc(F)cc1 | 43.9
88 | COc1ccc(NC(=O)N(C)C[C@H]2Oc3ccc(NC(=O)c4ccncc4)cc3C(=O)N([C@@H](C)CO)C[C@@H]2C)cc1 | 3.1
89 | CCn1c(SCc2nc(-c3ccc(Br)cc3)no2)nnc1-c1c[nH]c2ccccc12 | -9.5

An excerpt; the hit share may differ from the screen's.
